Bioassay records from PubChem.
A1 inh: inhibitors of the anti-apoptotic protein A1, read as caspase activation; MEF A1-2A-BIM cells, Caspase-Glo 3/7 luminescence, 3 h; percent of clofoctol response, vehicle zero; caspase activation, % (concentration not given with the values); 330,000 compounds, 0.066% hits;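 active = over half of replicate activation scores above 10%, or exactly half above 10 with the replicate mean above 10; inconclusive = replicate mean below 10 yet half the replicates above 10; inactive = over half of replicates below 10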;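 also: wells of about 30 µL received 50 nL stock; many hits fall short of the cut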
T cruzi inh: T. cruzi replication inhibition. 300,000 compounds, 1.4% hits. inhibition, % (concentration not given with the values). AID 1885. T. cruzi beta-gal in NIH3T3, luminescence, 90 h;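 active = mean inhibition across valid replicates above about 55%, limit read from the data; inconclusive = mean below that limit but half or more replicates reach it; inactive = mean below it, under half of replicates reach it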;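 also: signal also drops with host cell toxicity which is not excluded here; 0% = plate median of DMSO wells and 100% = zero luminescence signal; higher percent means less beta-gal luminescence so fewer parasites; stock transfer was 50 nL into about 50 µL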
E coli growth: blocks Escherichia coli growth; OD600, 23 h; stronger effect = lower value; OD600 absorbance (concentration not given with the values); 330,000 compounds, 0.21% hits; AID 1053175;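 active = OD600 absorbance below the run mean of sample wells minus 3.6 SD, in any replicate, cut at about 0.56 in these data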;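 also: stock transfer was 300 nL into about 60 µL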
MLL AF4-AF9 inh: MLL-AF4/AF9 protein interaction inhibition; P42568; AlphaScreen, biotin-AF4 peptide binding to FLAG-AF9; inhibition, % at 10 µM; 350,000 compounds, 0.47% hits; AID 651704;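 active = every replicate reaching a set inhibition limit, whatever the replicate mean, cut at about 25% in these data; inconclusive = mean inhibition reaches that limit but some replicates miss it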;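 also: 0% = plate neutral control median and 100% = total signal loss; the record names both 10 and 1 µM as test concentration; the first replicate is given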
FGF22 binding: FGF22 (human) thermal shift binding; Q9HCT0; recombinant FGF22 thermal shift, SYPRO orange fluorescence; percent of sucrose octasulfate shift, DMSO zero; calls only at 9.99 µM; 340,000 compounds, 1.5% hits;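 active = melting point raised past a set limit in the mean and every replicate; inconclusive = no clear call; three in four hits are not shown here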
Target sequence (Q9HCT0 whole entry, looked up): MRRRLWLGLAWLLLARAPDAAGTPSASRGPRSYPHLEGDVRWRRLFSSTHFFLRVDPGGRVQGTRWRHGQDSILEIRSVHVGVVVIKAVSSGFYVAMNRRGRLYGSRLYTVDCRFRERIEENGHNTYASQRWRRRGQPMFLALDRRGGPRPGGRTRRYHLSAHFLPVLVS
UCH37 DUB inh: blocks the human deubiquitinase UCH37. Q9Y5K5. purified proteasome/UCH37, Ub-AMC cleavage fluorescence. inhibition, % (test concentration not listed). 330,000 compounds, 0.33% hits;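 active = mean of two replicates above 20%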;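 also: 0% = compound-free wells with enzyme and 100% = wells lacking proteasome; stock transfer was 100 nL into about 20 µL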
Target sequence (Q9Y5K5 whole entry, looked up): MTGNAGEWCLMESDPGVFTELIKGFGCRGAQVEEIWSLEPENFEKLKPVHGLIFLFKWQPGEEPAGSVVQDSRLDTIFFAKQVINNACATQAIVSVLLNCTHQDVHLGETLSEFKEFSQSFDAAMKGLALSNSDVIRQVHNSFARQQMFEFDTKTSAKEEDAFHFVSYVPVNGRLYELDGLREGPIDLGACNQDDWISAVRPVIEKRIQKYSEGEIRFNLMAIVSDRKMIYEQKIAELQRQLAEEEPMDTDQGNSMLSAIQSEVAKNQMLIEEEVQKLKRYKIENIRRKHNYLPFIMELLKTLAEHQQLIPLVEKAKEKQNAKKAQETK
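system = Proteasome-associated human UCH37 deubiquitinase | amount = 0.15 nM proteasome as dispensed | medium = pH 7.4 Tris-HCl (50 mM) with ovalbumin, ATP-MgCl2, DTT | incubation = 30 min preincubation with enzyme, 25 min cleavage at room temperature | detection = AMC fluorescence 355/460 nm | read-out basis = percent inhibition | controls = no-proteasome and no-compound wells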
rRNA inh HTS: inhibits bacterial ribosomal RNA function over humanized ribosomes. E. coli WT GFP vs humanized-ribosome RFP mutants, fluorescence, 24 h; stronger effect = lower value; DMSO median 0, no signal -100. 350,000 compounds, 1.6% hits. GFP signal change (wild-type ribosome), % (test concentration not listed);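 active = significant combined selectivity score with lowered wild-type GFP, culture density cut under 30%, mutant RFP and density less affected; inactive = any of these conditions unmet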; also: one replicate is shown; some compounds called inactive have numbers as strong as hits
Beta apoptosis: blocks beta cell apoptosis; 300,000 compounds, 0.8% hits; protection from apoptosis, % (test concentration not listed); INS-1E cytokine-induced death, ATP luminescence, 48 h; percent of positive-control rescue, neutral wells zero;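 active = all replicates at 75% or more, or half of them and the mean; inconclusive = half reach 75% but not the mean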;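 also: 0% = cytokine-treated negative control wells and 100% = positive control rescue; higher means more ATP so stronger rescue from cytokine killing; wells of about 40 µL received 100 nL stock; the first replicate is given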
rRNA inh HTS OD600: second read-out of rRNA inh HTS, no call of its own (marks repeat the call); OD600 change, %; measured here: OD600 growth;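 optical density of the mix in the first replicate; 0 = DMSO median and -100 = no signal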
rRNA inh HTS RFP: also measured in rRNA inh HTS; calls as there; RFP signal change, %; measured here: RFP humanized mutant strains;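 first replicate; 0 = DMSO median and -100 = no signal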
Numbers without * were called inactive; i = inactive; ? = inconclusive; · = no result given. The list is partial, so the mix of outcomes need not match the whole.

Under each structure: E coli growth	UCH37 DUB inh	MLL AF4-AF9 inh	rRNA inh HTS	Beta apoptosis	T cruzi inh	rRNA inh HTS OD600	FGF22 binding	A1 inh	rRNA inh HTS RFP
COc1ccc(C(=O)NCc2nnc(SCC(=O)Nc3cc(OC)ccc3OC)o2)cc1
    0.61	-0.2	0.1	4	-3	-8	13	i	0.4	-1.4
O=C1CN2NC(=S)N(c3ccc(Cl)cc3)C2=CN1c1ccc(Cl)cc1
    0.64	1.5	-3.5	13	-6	-4	21	i	0.3	2.1
CS(=O)(=O)Nc1ccc2c3c(cccc13)CC2
    0.68	-64	·	·	-8	-3	·	·	0.2	·
Cc1cc(Cl)nc2ccc(Cc3ccc4nc(Cl)cc(C)c4c3)cc12
    0.7	-1.8	-1.0	3	10	33	-17	i	0.8	-0.2
CCCCCN(C(=O)CCC(=O)OCc1cccc(Cl)c1)c1c(N)n(CCCC)c(=O)[nH]c1=O
    0.68	1.7	1.9	6	·	2	9	i	0.2	-2.0
CCC(C)NCC(=O)Nc1ccc(S(N)(=O)=O)cc1 (centres undefined)
    0.69	4.3	-12	10	3	3	6	i	-0.4	12
CCC(=O)Nc1ccc(C(=O)CSc2nnc(-c3ccc(O)cc3)n2CC2CCCO2)cc1 (centres undefined)
    0.75	1.3	·	·	-2	0	·	·	0.3	·
CCC(C)[C@H](NC(=O)N1CCC(Cc2ccccc2)CC1)C(=O)O (some centres undefined)
    0.68	5.1	0.5	7	-1	-10	8	i	-0.2	0.8
FC(F)Oc1cccc(NC(=S)N2CCN(c3ccccn3)CC2)c1
    0.68	1.2	0.4	-6	-8	-6	-2	i	0.1	-1.2
Nc1c(C(=O)Nc2ccccc2)sc2nc3c(c(-c4ccco4)c12)CCCC3
    0.7	-83	·	·	-3	43	·	·	0.0	·
CCc1nnc(NC(=O)CSc2nnc(CNc3ccc(C)cc3)n2C)s1
    0.65	3.7	-0.8	3	2	3	2	i	0.7	0.3
COc1ccccc1N(CC(=O)NCCSc1ccccc1)S(=O)(=O)c1ccccc1
    0.68	-0.6	-1.3	-31*	5	19	-19*	i	-0.1	-2.4*
O=C(CSc1nnc(NC(=O)c2ccccc2C(=O)O)s1)Nc1ccccc1Cl
    0.69	4.7	-3.2	16	-3	-8	8	i	-0.3	-1.9
O=C(Nc1cc(Cl)cc(Cl)c1)C(NCC1CCCO1)c1ccccc1 (centres undefined)
    0.68	3.4	-1.9	-32	4	3	-52	i	-0.6	12
CS(=O)(=O)N1N=C(c2cccs2)CC1c1ccc(F)cc1 (centres undefined)
    0.67	2.9	4.3	3	2	-11	2	i	-0.1	0.2
Cc1ccc(-n2nc3c(=O)n(C(C)C(=O)NCc4ccc5c(c4)OCO5)nc(C)c3c2C)cc1 (centres undefined)
    0.69	4.8	-8.0	11	2	5	8	i	1.2	5.5
COc1ccccc1C(=O)NNC(=O)CCC(=O)NCc1ccccc1
    0.71	-0.7	-1.1	3	-1	3	0	i	0.7	-3.7
OCc1cc(-c2ccccn2)no1
    0.73	4.6	·	15	-4	-12	15	i	0.5	5.9
CCOC(=O)CN=C1CC(C)(C)CC2=C1Sc1ncnc(N(C)C)c1N2
    0.71	9.0	2.0	11	·	-4	9	i	·	-4.0
Cc1cc(Nc2ccc3c(c2)OCCO3)c2ccccc2n1
    0.63	11	4.5	8	12	1	6	i	1.0	-6.4
O=C(NC1CCCCC1)c1cc(S(=O)(=O)N2CCCCC2)ccc1N1CCOCC1
    0.68	-0.6	3.2	-5	-1	·	-7	i	-0.2	3.6
COC(=O)[C@H](CCSC)NC(=O)Cn1cnc(C(=O)Nc2ccc(C)c(C)c2)n1
    0.69	1.7	1.0	-3	·	·	-2	i	·	-2.4
Cc1nc2ccc(NC(=O)c3ccc(S(=O)(=O)N4CCOCC4)cc3)cc2s1
    0.71	-35	·	·	3	6	·	·	-0.3	·
Cc1nnc(NS(=O)(=O)c2ccc(Br)cc2)s1
    0.7	3.0	-0.7	-10	·	2	-13	i	0.5	-10
Cn1cccc1C(=S)N1CCOCC1
    0.71	7.7	·	·	1	-25	·	·	1.0	·
O=C(NC(=S)Nc1ccccc1)c1cncc(C#Cc2ccccc2)c1
    0.67	2.2	-2.4	7	17	-18	-7	i	0.0	1.2
Cc1ccnc(SCC(=O)NC2CC2)n1
    0.63	-1.7	-4.9	4	-4	-2	10	i	0.4	-3.4
Cc1ccc(N2CCCn3c2cc(C)c(C#N)c3=O)cc1Cl
    0.64	-36	·	·	-2	-1	·	·	-0.5	·
Cc1ccc2cc(C=C(C#N)C#N)c(N3CCCCC3)nc2c1
    0.66	6.1	13	1	2	-13	7	i	-0.2	5.2
Cc1[nH]c2ccc(Br)cc2c(=S)c1C/C=C/Cl
    0.58	6.8	-23	-8	-3	-4	-8	i	2.7	2.6
O=S(=O)(C(=CNc1ccccc1)S(=O)(=O)c1ccccc1)c1ccccc1
    0.7	2.4	·	·	-3	6	·	·	-2.1	·
CC1=C(C(=O)Nc2cc(C(=O)N3CCN(c4cccc(C)c4C)CC3)ccc2C)SCCO1
    0.68	1.7	18	-3	-3	32	-37	i	-0.1	13
COc1ccc(N(CC(=O)Nc2cc(C)cc(C)c2)S(=O)(=O)c2ccccc2[N+](=O)[O-])c(OC)c1
    0.71	1.4	-3.1	12	8	6	17	i	1.1	1.5
Cc1cccc(NC(=O)CNC(=O)C23CC4CC(CC(Cl)(C4)C2)C3)n1
    0.63	0.3	-0.7	-3	2	-4	-3	i	-0.1	0.4
CC(C)(C)c1ccc(CSc2nnc(-c3ccccn3)n2Cc2ccco2)cc1
    0.7	3.1	·	-4	10	4	0	·	-0.9	5.6
Cc1ccc(NC(=O)NC2=N/C(=C(/C#N)C(=O)N3CCCC3)c3ccccc32)cc1
    0.65	4.7	·	·	-2	14	·	·	?	·
CC(=O)N/C(=C\c1ccccc1)C(=O)OCC(=O)c1c(N)n(C)c(=O)n(C)c1=O
    0.65	-2.3	-4.1	27	-3	·	14	i	1.4	4.3
CCCCn1c(N)c(N(CC(C)C)C(=O)CC(NC(=O)c2ccccc2)c2ccccc2)c(=O)[nH]c1=O (centres undefined)
    0.68	1.2	-0.4	-2	0	-8	5	i	0.2	0.8
COC(=O)c1sccc1N/N=C/c1ccc(OC)c(OC)c1OC
    ·	·	5.1	-24	-7	29	-24	i	0.3	-5.7
Cc1cccc(N2CCN(S(=O)(=O)c3ccc4c(c3)n(C)c(=O)c(=O)n4C)CC2C)c1 (centres undefined)
    0.71	-8.3	·	·	-4	17	·	·	-1.0	·
CCOc1ccc(CCNC(=O)COc2cccc(-n3cnnn3)c2)cc1OCC
    0.68	0.8	-4.8	1	-6	4	6	i	-1.2	-2.4
CCCCNC(=S)NNC(=O)C1=NN(c2cc(C)ccc2C)C(=O)CC1
    0.65	4.8	0.8	2	0	2	-10	i	1.1	2.7
COc1cccc(CNC(=O)C2CCC(CNS(=O)(=O)c3cccc4nsnc34)CC2)c1 (centres undefined)
    0.8	8.3	3.9	-3	-12	-1	-8	i	0.0	3.4
CC(C)N1C(=O)CCC1C(=O)N1CCC(Cc2ccccc2)CC1 (centres undefined)
    0.67	0.3	-3.1	3	-1	-2	-1	i	-0.2	0.0
O=C(Cc1ccc(F)cc1)Nc1c2c(nn1-c1cccc(Cl)c1)CS(=O)C2 (centres undefined)
    0.66	4.2	·	·	2	-9	·	·	0.6	·
CCOC(=O)c1ccc(N=C2SC(C(=O)NCCc3ccccc3)CC(=O)N2C)cc1 (centres undefined)
    0.7	3.9	-2.8	8	2	20	9	i	0.2	-6.4
Nc1nc2ccc(C(=O)Nc3ccc(N4CCOCC4)cc3)cc2s1
    0.73	0.6	-2.0	-5	3	·	-3	i	-1.7	-2.0
Cc1cc(=O)[nH]c(Nc2c(C)n(C)n(-c3ccccc3)c2=O)n1
    0.77	2.7	·	·	-2	-7	·	·	0.9	·
C=CCn1c(SCC(=O)NC)nnc1C12CC3CC(CC(C3)C1)C2
    0.7	3.3	-1.6	-10	·	-10	0	i	0.3	-1.2
CCCCN(C)C(=O)c1cc2cc([N+](=O)[O-])cc(OC)c2oc1=O
    0.7	6.8	-1.3	·	-5	6	·	i	0.3	·
O=C(NCCCC(=O)N1CCCCC1)c1ccc(Cl)cc1
    0.68	4.0	-0.7	12	-5	-3	13	i	-1.0	0.0
CCSc1nc2sc3c(c2c(=O)[nH]1)CCCC3
    0.76	-0.2	·	2	-2	-10	8	·	1.8	-3.5
COCCN(C(=O)COC(=O)/C=C/c1ccc(SC)cc1)c1c(N)n(Cc2ccccc2)c(=O)[nH]c1=O
    0.73	-83	-7.8	·	·	·	·	i	·	·
Cc1ccc2[nH]c3c(=O)n(CCN4CCOCC4)cnc3c2c1
    0.67	-8.6	·	·	-4	-9	·	·	1.7	·
O=C(NNS(=O)(=O)c1ccc(Br)cc1)c1ccccc1-n1cccc1
    0.74	5.3	-0.2	-18	-2	1	-10	i	0.7	1.6
CN1CCN(c2nc3ccccc3nc2NS(=O)(=O)c2ccc(Br)cc2)CC1
    0.68	-5.7	-1.2	4	-1	·	-8	i	0.5	33
CCOC(=O)c1cnn2c(C(F)(F)F)cc(-c3cn(C)nc3C)nc12
    0.69	-90	·	·	-3	15	·	·	-0.4	·
